# StopGo FLuc: lowers the firefly signal of an FMDV 2A StopGo reporter. Potency, µM (series often up to 57.5 µM), inactives show top-dose signal change, negative = less light. HEK cells with a luciferase reporter of 2A StopGo recoding. AID 1745856. hit rate 0.23% among 120,000; active = well fitted falling curve with a large enough effect; inconclusive = small, poorly fitted or top-dose-only effect; inactive = no such curve, though single readings can be large or run the other way; note: nearly all actives have a fitted effect of over 60% in size; overnight with compound
# 2A Renilla: lowers the Renilla signal of an FMDV 2A StopGo reporter. Potency, µM (top dose mostly 57.5 µM), inactives show at the highest dose signal change, negative = less light. HEK cells with a luciferase reporter of 2A StopGo recoding. AID 1745857. hit rate 0.32% among 120,000; active means well fitted falling curve with a large enough effect; inconclusive means small, poorly fitted or top-dose-only effect; inactive means no such curve, though single readings can be large or run the other way; note: nearly all actives have a fitted effect of over 55% in size; overnight with compound
# * marks the source's active call; other numbers are inactive results; ? = inconclusive; & = joins results of further samples; [ ] = dose if it differs, or a comment. % is set by controls: 0 for no effect and ±100 for the full control effect; potency is the fitted concentration of half-maximal effect. Some of the compounds tested; the hit share may differ from the screen's.
compound,2A Renilla,StopGo FLuc
CCC(=O)N1CCCC(C(=O)N(C)Cc2cccc(C(F)(F)F)c2)C1 (centres undefined),-3%,2%
COc1ccc(-c2nc(CSCC(=O)NCC(C)C)co2)cc1,?,?
CCc1ccc(NS(=O)(=O)c2ccc(-c3coc(C)n3)cc2)cc1,96%[activator],30%[activator]
O=C(CCCSc1nc2ccccc2s1)Nc1ccc(F)cc1F,-12%[1.06 µM],36%[activator]
CC(=O)C1=C(c2cccc([N+](=O)[O-])c2)N(C(C)=O)n2c(nnc2-c2ccc(C)cc2)S1,-5%,-12%
Cc1nc2ccc(Cl)cc2cc1C(=O)NCc1cccnc1OC(C)C,-8%,-14%
COc1cc(C(C)=O)ccc1OCC(=O)OCCOc1c(Cl)cccc1Cl,7%,18%
Cc1cccc(-c2nc(-c3ccc(S(=O)(=O)N4CCOCC4)cc3)cs2)c1,-6%,18%
O=S(=O)(CCN1CCN(c2cnccn2)CC1)c1ccccc1,-8%,-16%
CC(C)(C)c1ccc(C(=O)N/N=C(/C=C/c2ccccc2)c2ccccc2)cc1,-2%,21%
O=c1cc(CN2CCN(Cc3ccccc3)CC2)c2cc(Cl)ccc2o1,-18%,-11%
O=C(Nc1ccc(C(F)(F)F)cc1)C1(c2cccs2)CCOCC1,14%,-15%
Cc1cc(C)c2c(n1)SCCN2C(=O)Nc1ccc(C(=O)Nc2cc(Cl)ccc2C)cc1,-13%,34%[activator]
Cc1ccc(-n2c(=O)c3oc4ccccc4c3n(Cc3cccc(F)c3)c2=O)cc1C,-10%,37%
CN(CCNC(=O)c1nccnc1N)c1ccccc1,-10%[1.06 µM],105%[activator]

# New compounds follow
compound,2A Renilla,StopGo FLuc
CCc1nn(CCCC(=O)NCc2ccc(OC(C)C)cc2)c(=O)c2cc3occc3n12,3%,0%
COCCCN1CCC(CN)C1 (centres undefined),0%,0%
COC(=O)c1ccc(NC(=O)Cn2c(=O)oc3ccccc32)cc1,-3%,4%
CCc1nnc(NC(=O)c2nnn(-c3ccccc3OC)c2C)s1,34%[activator],139%[activator]
COc1cccc(C(=O)NCCCNC(=O)c2nc3ccccc3c(=O)[nH]2)c1,-8%,9%
CC(C)OC(=O)c1cc2cc(Br)ccc2oc1=O,-5%,-3%
Cc1ccc(N2CCN(Cc3nnc(-c4ccccc4F)o3)CC2)c(C)c1,-20%,-8%
COc1ccc2oc(=O)c(S(=O)(=O)N3CCCC(C)C3)cc2c1 (centres undefined),-7%,-6%
Cc1cccc(N(C)c2nc3ccc(C)cc3n3cnnc23)c1,-10%,92%[activator]
O=c1c(C(F)(F)F)nc2ccccc2n1CC(O)COCc1ccccc1 (centres undefined),16%,-10%
CC(=O)c1cn(CC(=O)NCC2(CC(=O)O)CCCCC2)c2ccccc12,-7%,-3%
Nc1nc[nH]c(=O)c1N,-8%,4%
CC(C)CSc1nc2c(c(=O)[nH]c(=O)n2C)n1CC(O)COc1ccc(Cl)cc1 (centres undefined),9%,18%
Cc1ccc(NC(=O)Cn2cnc(S(=O)(=O)N3CCOCC3)c2)c(Cl)c1,3%,11%
COc1ccc(OC2CCN(S(=O)(=O)c3cccc(F)c3)CC2)cc1,35%[activator],?

# Other records
compound,2A Renilla,StopGo FLuc
CCc1ccc2oc(C(=O)Nc3ccc(S(=O)(=O)Nc4cc(C)nc(C)n4)cc3)cc(=O)c2c1,24%,-9%
CCOC(=O)NCc1ccc(OC)cc1,7%,16%
COc1ccc(CNC(=O)CSc2nnc(C)n2C2CCCCC2)cc1,-2%,4%
CN(Cc1ccccc1)c1ncnc2c1nc1n2CCCC1,13%,7%
COc1ccc2oc(-c3ccc(C)c(NC(=O)CSc4ccc(Cl)cc4)c3)nc2c1,-10%,52%[activator]
CCc1ccc(OCC(=O)Nc2ccc3c(c2)c2ccccc2n3CC)cc1,-13%,-16%
Cc1ccc(NC(=O)Cn2nc(-c3ccccc3)ccc2=O)cc1S(=O)(=O)N1CCOCC1,-15%,-1%
Cc1nc2c3ccccc3nc(NNC(=O)CCC(=O)N3CCN(c4cccc(C(F)(F)F)c4)CC3)n2n1,-20%,-10%
COc1ccc(N2CCN(Cc3nc4c(c(=O)[nH]c(=O)n4C)n3Cc3ccccc3)CC2)cc1,2%,16%
CCCCSc1nc(-c2ccc(OC)cc2)ccc1C#N,-8%,8%
Cc1c(CCNC(=O)c2ccco2)sc2nc(-c3ccc(F)cc3)nn12,?,-9%
Cc1ccc(CNC(=O)c2nc(-c3nn(-c4ccc(F)cc4)c(=O)n(C)c3=O)no2)o1,1%,-7%
Cc1cc(C(=O)NC(C)c2ccccc2Br)c(C)[nH]1 (centres undefined),1%,8%
COc1cc(NC(=O)C(CCSC)NS(=O)(=O)c2ccc3c(c2)oc(=O)n3C)cc(OC)c1 (centres undefined),24%,-10%
C#CCN1CCC(CN(CC)CC)CC1,-12%,0%

# (list continues)
compound,2A Renilla,StopGo FLuc
Fc1ccc(NCC23CC4CC(CC(C4)C2)C3)cc1,-8%,8%
CCCC(=O)Nc1nc2nc(CCC)cc(=O)n2[nH]1,-4%,-4%
Cc1nc(SCC(=O)OC(C)(C)C)c2c3c(sc2n1)CCCC3,-7%,-10%
COc1ccc(CN(C(=O)c2cc(=O)c3cc(Cl)ccc3o2)C2CCS(=O)(=O)C2)cc1 (centres undefined),8%,7%
CC1CCN(C(=O)CN2c3ccc(Br)cc3-c3ccccc3S2(=O)=O)CC1,0%,132%[activator]
COc1ccc(-c2nc3ccccc3s2)cc1NC(=O)c1ccc(C#N)cc1F,-8%,23%
Cn1cnc2c1c(=O)n(CC(=O)NC1CC1)c(=O)n2C,-13%,-4%
Cn1ccc2cc(S(=O)(=O)N3CCC(C(=O)N4CCC5(CC4)OCCO5)CC3)ccc21,12%,0%
Cc1cccc(NC(=O)c2oc3ccccc3c2NC(=O)Cc2coc3cc(C)cc(C)c23)c1,-9%,3%
COc1ccc2c(c1)c(=O)c(C(=O)c1ccc(C)c(C)c1)cn2CC(=O)Nc1ccc2c(c1)OCCO2,-3%,0%
O=C(CSCc1cnn(-c2ccccc2)c1-n1cccc1)NCc1ccc(F)cc1,?,?
CCCc1nc(SC)ncc1C(=O)Nc1ccc(C)cc1Cl,16%,19%
Cc1nc2ccc(C(=O)NCCN(C(C)C)C(C)C)cc2nc1C,-1%,0%
CCCOc1ccc(OCCBr)cc1,4%,41%[activator]
O=C(CCC1CCCC1)Nc1cccc2ncccc12,77%[activator],74%[activator]

# Remaining list, next part.
compound,2A Renilla,StopGo FLuc
Cc1nn2cc(-c3ccc(OC(C)C)cc3)nc2s1,13%,11%
CCn1cnc2c1c(=O)n(Cc1c(C)noc1C)c(=O)n2Cc1ccccc1,5%,9%
Cc1cccc(S(=O)(=O)c2cn(Cc3ccccc3)c3cc(N4CCCCC4)c(F)cc3c2=O)c1,24%,32%
CCN1CCC(N(Cc2cccc(OC)c2)C(=O)Nc2cccc(C(F)(F)F)c2)CC1,-7%,-24%
O=C(CCn1nnc2ccccc21)OCC(=O)c1ccccc1,2%,8%
CSc1ccc(C2c3[nH]c4ccccc4c3CCN2C(=O)CCc2ccccc2)cc1 (centres undefined),?,?
O=C(O)c1ccc(NCc2c(Cl)cccc2Cl)cc1,4%,14%
O=C(Nc1ccc(Br)cc1F)c1cccs1,21%,126%[activator]
Cc1cc(Nc2ccc(C)c(Cl)c2)n2nc(Cc3ccccc3)nc2n1,-8%,-8%
COc1ccc(Br)c2c1-c1nc(NC(=O)c3cccc(C)c3)sc1C2,-9%&-9%,3%&23%
O=C(NC(Cc1ccccc1)C(=O)Nc1ccc(N2CCOCC2)cc1)c1ccco1 (centres undefined),6%,15%
CCOC(=O)c1c(NC(=O)COc2ccc(Cl)cc2C)sc(C(C)=O)c1C,-8%,-8%
COc1ccc(Nc2ccc(NC(=O)Cn3cnc4c3c(=O)n(C)c(=O)n4C)cc2)cc1,-6%,17%
COc1ccc(C(CNC(=O)C2CCN(S(=O)(=O)c3ccc(C)cc3C)CC2)N(C)C)cc1 (centres undefined),-3%,-22%
CCOC(=O)c1ccc(CN(Cc2ccc(Br)cc2)S(=O)(=O)c2cccc(Cl)c2C)cc1,-10%,-13%

# Next part.
compound,2A Renilla,StopGo FLuc
COc1ccc(C(=O)c2c(N)c(-c3nc(-c4ccccc4)cs3)c3ccccn23)cc1,10%,139%[activator]
CCC(Oc1ccc(F)cc1)C(=O)Nc1cc(-c2ccc(C)cc2)no1 (centres undefined),-4%,-2%
Cc1cc(C)cc(N2C(=O)N(Cc3cccc(F)c3)c3ccccc3S2(=O)=O)c1,142%[activator],-1%
Cc1ccc(-c2cn3c(n2)sc2cc(C(=O)NCCC4=CCCCC4)ccc23)c(C)c1,-13%,57%[activator]
Cc1cc(Br)ccc1NC(=O)c1cn(C2CCCC2)c(=O)c2c1c1ccccc1n2C,-4%,5%
CCC(C(=O)Nc1ccc(OC)c(Cl)c1)n1nc(-c2cc(C)ccc2C)ccc1=O (centres undefined),10%,16%
O=S(=O)(Nc1ccc(O)c(Sc2nc3ccccc3s2)c1)c1cc(Cl)ccc1Cl,-13%,-9%
CCCc1ccc(C(C)NC(=O)C2CC2C)cc1 (centres undefined),?,?
CCN1CCN(Cc2cc(=O)oc3cc(C)ccc23)CC1,-6%,28%
COc1ccc(-c2nn(C)c3sc(C(=O)Nc4cc(OC)c(OC)c(OC)c4)cc23)cc1OC,-15%,9%
COc1ccc(CNC(=O)C(C)SCCO)cc1OC (centres undefined),11%,19%
COC(=O)c1ccccc1NC(=O)c1ccc2c(c1)CCN2S(C)(=O)=O,-1%,2%
O=c1nc(-c2ccc(Cl)cc2)c2cc(Cl)ccc2[nH]1,-3%,5%
COc1cccc2cc(-c3nc(-c4ccc(Cl)cc4)cs3)c(=O)oc12,-4%,-12%
O=C1CCSc2c1cccc2C(=O)NCC1CCN(Cc2cccc(F)c2)CC1,-7%,-6%

# Remaining list, next part.
compound,2A Renilla,StopGo FLuc
Cc1c(C(=O)N2CCCCCC2)c(S(=O)(=O)Nc2ccc(OC(F)(F)F)cc2)c(C)n1C,92%[activator],-19%
CCCC(=O)Nc1ccc2oc(-c3cncc(Br)c3)nc2c1,-1%,165%[activator]
Cc1ccc(C(=O)c2oc3ccccc3c2NC(=O)c2cc(-c3ccc(Cl)cc3)on2)cc1,-15%,-11%
O=C(NC1CCCC1)c1ccc(I)cc1,7%,91%[activator]
COCCn1c(SCC(=O)c2ccc3c(c2)OCCCO3)nnc1-c1ccc(Cl)cc1,10%,0%
CC(=O)c1nnn(-c2ccc(C)cc2Cl)c1C,8%,-12%
CCCc1cc(=O)oc2cc(OCC(=O)N3CCc4ccccc43)ccc12,-12%,-8%
O=C(COCc1cc(-c2ccc(F)cc2)on1)Nc1cc(Cl)cc(Cl)c1,-11%,4%
Cc1ccc(-n2c(SCc3ccccc3F)nc3[nH]ncc3c2=O)cc1Cl,8%,-29%
O=c1cc(-c2ccccc2)c2ccc(OCc3ccc(-c4ccccc4)cc3)cc2o1,4%,9%
CNc1c(NC(=O)c2c(F)cccc2F)c(=O)oc2ccccc12,-7%,-3%
COc1cc(CN(C(=S)NCC(=O)NCc2ccccc2Cl)C2CCCC2)cc(OC)c1OC,215%[activator],-4%
COc1cc(C2CC(=O)Oc3n[nH]c(-c4ccccc4)c32)cc(OC)c1OC (centres undefined),-11%,-11%
CCOC(=O)c1ccc(-c2ccc(/C=C(\C#N)c3nc4ccc(C)cc4[nH]3)o2)cc1,-6%,53%[activator]
CC(=O)Nc1ccc(N/C=C(\C#N)c2nc(C3CC3)cs2)cc1,8%,0%

# Additional entries
compound,2A Renilla,StopGo FLuc
COC(=O)C1=C(C)N(C)C(C)=C(C(=O)OC)C1c1ccc(C(F)(F)F)cc1,49%[activator],19%
FC(F)(F)c1cccc(Nc2nc(CN3CCOCC3)nc3sc4c(c23)CCCC4)c1,-6%,-8%
N#Cc1cccc(S(=O)(=O)Nc2c(NC3CCCC3)c3ccccc3oc2=O)c1,10%,4%
CN(CC(=O)C(C#N)c1ccccc1)Cc1ccccc1 (centres undefined),0%,12%
O=C(CCc1ncc(-c2ccc(F)cc2F)o1)NCc1ccco1,15%,21%
Cc1ccc(-c2n[nH]c3c2C(c2ccccc2Cl)N(c2ccc(C(=O)O)cc2)C3=O)cc1 (centres undefined),?,?
CCN(C(=O)Cn1cc(C(=O)c2ccc(F)cc2)c(=O)c2ccc(C)nc21)c1cccc(C)c1,0%,-13%
CCCn1nc(C(=O)OC(C)C(=O)Nc2cccc(S(=O)(=O)N(C)C)c2)c2ccccc2c1=O (centres undefined),15%,-1%
Cc1ccc(NC(=O)c2nn(Cc3ccccc3)c(=O)c3ccccc23)c(Cl)c1,-7%,6%
Cn1c(CCCC(=O)O)nc2cc(N(CCCl)CCCl)ccc21,-15%,-4%[11.5 µM]

# High-throughput results as filed in PubChem BioAssay.
